Mtb MbtI inh = MbtI salicylate synthase inhibition; P9WFX0; purified MbtI enzyme, fluorescence intensity read-out; inhibition, %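 (about 17 µg/mL by stock and volumes)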; hit rate 0.89% among 100,000; AID 493033;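 active means above 50% in both replicates, above 80% if mildly self-fluorescent; inactive means the rest, strongly fluorescent compounds included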;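 further: 0% = mean of negative and 100% = mean of positive controls; one replicate is shown; some compounds called inactive have numbers as strong as hits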
Polio RdRp inh = poliovirus RNA polymerase inhibition | poliovirus polymerase elongation, fluorescence polarization; active compounds read low | P03300 | % elongation, % (compound at 16.7 µg/mL) | hit rate 0.66% among 150,000; in the data active means % elongation below about 90%; further: some results filed as inactive read as strong as hits
Target sequence (P03300 1749-2209 limits assumed): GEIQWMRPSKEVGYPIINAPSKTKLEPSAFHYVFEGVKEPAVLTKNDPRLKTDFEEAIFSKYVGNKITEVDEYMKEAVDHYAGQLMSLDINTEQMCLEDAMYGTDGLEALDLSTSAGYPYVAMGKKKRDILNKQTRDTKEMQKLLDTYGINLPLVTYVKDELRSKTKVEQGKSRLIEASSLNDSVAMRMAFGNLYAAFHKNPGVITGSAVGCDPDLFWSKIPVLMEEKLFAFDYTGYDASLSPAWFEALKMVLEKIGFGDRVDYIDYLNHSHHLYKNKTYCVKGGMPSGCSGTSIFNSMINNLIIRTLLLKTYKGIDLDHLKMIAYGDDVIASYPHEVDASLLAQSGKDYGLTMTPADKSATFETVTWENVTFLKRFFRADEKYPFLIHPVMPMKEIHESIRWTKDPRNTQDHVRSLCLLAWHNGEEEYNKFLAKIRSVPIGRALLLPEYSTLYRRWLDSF
Mtb MenB inh = Mtb MenB enzyme inhibition | P9WNP5 | MenB enzyme assay, absorbance read-out; some hits fall short of the stated cut | inhibition, %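 (about 12 µg/mL by stock and volumes)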 | hit rate 0.43% among 100,000 | AID 540299;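 active means mean of two replicates above 30%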;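 further: 0% = no compound and 100% = wells with inactive enzyme; the first replicate is given; strong numbers were not always called active; inactives centre near -10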
Target sequence (P9WNP5 whole entry, looked up): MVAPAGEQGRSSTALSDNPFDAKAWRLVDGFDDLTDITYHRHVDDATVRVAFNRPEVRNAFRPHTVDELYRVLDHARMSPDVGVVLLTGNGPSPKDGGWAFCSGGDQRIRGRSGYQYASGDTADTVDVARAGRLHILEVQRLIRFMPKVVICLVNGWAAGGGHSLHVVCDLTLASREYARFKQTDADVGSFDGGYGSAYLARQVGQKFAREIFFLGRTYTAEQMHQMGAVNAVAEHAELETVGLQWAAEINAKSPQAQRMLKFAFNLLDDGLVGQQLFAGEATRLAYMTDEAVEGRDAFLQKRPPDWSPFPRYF
Polio RdRp inh intensity = second read-out of Polio RdRp inh, no call of its own (marks repeat the call); % elongation; measured here: total intensity read-out; formula for this scale not given here;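 total fluorescence in place of polarization; lower means less elongation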
* hit, by the source's call; i = inactive; / = no result given; & = joins results of further samples.

No.	SMILES	Mtb MbtI inh	Polio RdRp inh	Polio RdRp inh intensity	Mtb MenB inh
1	COc1ccc(C(=O)O[C@H]2CC[C@@]3(C)[C@@H]4CC[C@H]5[C@]6(O)C[C@H](O)[C@@]7(O)[C@@H](CN8C[C@@H](C)CC[C@H]8[C@@]7(C)O)[C@]6(O)C[C@@]53O[C@]24O)cc1OC	-17	101	104	/
2	Cc1ccc2[nH]c(O)c(N=NC(=O)c3nc4ccccc4c(=O)[nH]3)c2c1	3	99	101	6
3	Fc1ccc(-c2noc3ncnc(NCC4CCCO4)c23)cc1 (configuration not stated)	-6	100	102	-2
4	COCc1cc(C)nc(SCCN(C)C)c1C#N	-2	105	101	-22
5	Cc1ccc2oc(=O)c(/C=C(\O)C(C)(C)C)nc2c1	5	100	102	13
6	CC(=O)Nc1ccc(C(=O)COc2ncnc3c2cnn3-c2ccccc2)cc1	6	102	104	4
7	CC1CCN(C(=O)CSc2nc3cc4c(cc3c(=O)n2CCC2=CCCCC2)OCO4)CC1	-3	99	98	8
8	O=C(O)C1C2C=CC(C2)C1C(=O)NNc1ncnc2ccccc12 (configuration not stated)	3	105	103	-75
9	CCC(=O)Oc1ccc(C2CC(=O)c3c(ccc4ccccc34)N2)cc1OC (configuration not stated)	/	103	105	-26
10	Cc1ccc(CNC(=O)C2CCCN(C(=O)N(C)C)C2)cc1 (configuration not stated)	-16	98	103	-12
11	COc1ccccc1-c1noc(CCCC(=O)NC2CCCC2)n1	13	103	103	-44
12	COc1ccc(CC(=O)NC2=NCCS2)cc1	-15	98	95	8
13	CC1CCCN(C2(O)C(=O)N(C)c3ccc(Br)cc32)C1 (configuration not stated)	-14	101	99	-23
14	O=C1CCC(=O)N1CN(CN1C(=O)CCC1=O)C1CCCCC1	-5	101	103	-30
15	CN1CC(=O)N/C1=N/C(=O)Nc1ccc2c(c1)N(C)C(=O)CS2	-2	104	103	10
16	O=C(NC1CCCCC1)NC1CCN(Cc2nnnn2Cc2ccc(F)cc2)CC1	-3	102	104	-40
17	N#Cc1ccccc1NC(=O)CCCC(=O)Nc1ccccc1C#N	/	108	109	-21
18	CC1CCC[S+](c2cc(O)ccc2O)C1 (configuration not stated)	101*	101	101	7
19	CC1CCCC(C)N1CCNC(=O)c1cn(C(C)c2ccccc2F)nn1 (configuration not stated)	-6	101	101	18
20	COc1cc(NC(=O)c2cccc3c2C(=O)N(Cc2cccnc2)C3)cc(OC)c1OC	-10	101	103	-18
21	CSc1ccc(C(=O)O)cc1	23	98	104	-20
22	O=C(NNC1=NCCC1)c1cccc(S(=O)(=O)Nc2ccc(Cl)cc2)c1	18	103	104	-14
23	Cc1cc2oc(=O)c3c(c2cc1OCC(N)=O)CCCC3	78	101	100	8
24	Cc1nccc2[nH]c(=O)c(C(=O)NCc3ccc(Cl)cc3)cc12	57	103	108	-15
25	CC1Cc2ccccc2N1C(=O)COC(=O)c1ccccc1NC(=O)c1ccco1 (configuration not stated)	i	106	111	-17

Entries shown so far with an NH in an aromatic ring, in the order listed:
No.	SMILES	Mtb MbtI inh	Polio RdRp inh	Polio RdRp inh intensity	Mtb MenB inh
2	Cc1ccc2[nH]c(O)c(N=NC(=O)c3nc4ccccc4c(=O)[nH]3)c2c1	3	99	101	6
24	Cc1nccc2[nH]c(=O)c(C(=O)NCc3ccc(Cl)cc3)cc12	57	103	108	-15

Next records:
No.	SMILES	Mtb MbtI inh	Polio RdRp inh	Polio RdRp inh intensity	Mtb MenB inh
26	CCOC(=O)/C=c1\s/c(=C\c2ccccn2)c(=O)n1CC(=O)N1c2ccccc2CC1C (configuration not stated)	-10	105	120	-46
27	CC(C)CCSc1nc2ccccc2n1Cc1cc(=O)n2ccsc2n1	-41	103	117	-25
28	CCOC(=O)C1CCCN(C(=O)CCc2ccccc2)C1 (configuration not stated)	/	103	107	8
29	CCCCn1cnc2c1c(=O)[nH]c(=O)n2CCC	-3	109	111	3
30	COC(=O)CNC(c1ccccc1)c1cc(Br)ccc1N=Cc1ccccc1O (configuration not stated)	3	104	107	-29
31	Nn1cnnc1SCc1ccc(F)cc1	4	102	100	-21
32	C=CCn1c(C)cc(C(=O)CSC2=Nc3ccccc3C3CC=NN23)c1C (configuration not stated)	4	102	105	55*
33	Cc1ccc(Cn2cccc(C(=O)N3CCc4ccccc43)c2=O)cc1	12	102	100	-5
34	CCc1cc2c(-n3nc(C)cc3C)ncnc2s1	-7	100	101	/
35	Cc1ccccc1C(=O)Oc1c(-c2ccco2)oc2ccccc2c1=O	27	102	105	-64
36	O=C(Cc1ccccc1)Nc1c2c(nn1-c1ccc(Cl)cc1)CSC2	-4	105	106	-31
37	CCn1nc(C(=O)NCCc2ccc(OC)cc2)c2ccccc2c1=O	-4	/	/	-28
38	CCc1ccc(C2=NNC(=O)CC2)cc1	4	100	99	-11
39	CNCCc1c(-c2ccccc2)n(-c2ccccc2)c2ccccc12	101	100	103	-9
40	Cc1ccc2oc(=O)c3cnn(CC(=O)NCCC4=CCCCC4)c3c2c1	1	101	104	-22
41	Nc1ccn(C2O[C@H](CO)[C@@H](O)[C@@H]2O)c(=O)n1 (some centres not stated)	-12	99	101	11
42	CN(C)C(=O)CN1CCN(c2ccc(F)cc2)CC1	-5	105	100	-5
43	O=C(CC12CC3CC(CC(C3)C1)C2)N1CCC(O)(c2ccc(Cl)cc2)CC1	0	100	105	0
44	O=C(CSC1=Nc2ccccc2C2=NC(CC(=O)NCc3ccco3)C(=O)N12)NCc1ccco1 (configuration not stated)	6	98	95	-5
45	c1csc(-c2cc(N3CCOCC3)c3ccccc3n2)c1	-5	98	102	0
46	CN(C)c1ccc(C2CC(C)(N3CCCC3)Oc3cc4c(cc32)OCO4)cc1 (configuration not stated)	/	99	106	-6
47	CC1C(=O)C2(CCCCC2)C(=O)OC1c1ccccc1 (configuration not stated)	/	108	109	-8
48	COc1ccc(S(=O)(=O)N(Cc2ccco2)Cc2nnc(-c3cccs3)o2)cc1	9	99	102	-8
49	O=C(CC1C(=O)NCCN1C(=O)Nc1ccccc1)Nc1cccc(C(F)(F)F)c1 (configuration not stated)	-6	99	104	3
50	CC(C)(C)c1noc2nc(-c3cccs3)cc(C(F)(F)F)c12	29	102	104	-26
51	COc1ccc(C2CC(=O)C=C(Nc3ccccc3)C2)cc1 (configuration not stated)	/	105	98	-16
52	CC1CCCCN1S(=O)(=O)c1ccc(C(=O)Nc2nnc(C3CC3)o2)cc1 (configuration not stated)	2	101	105	-26
53	CC1CCN(C(=O)c2cccn3c(=O)c4c5c(sc4nc23)CCCC5)CC1	9	102	106	-11
54	CCOC(=O)c1sc(-c2ccccc2)nc1OC(=O)c1ccc(C(F)(F)F)cc1	-4	107	106	4
55	COc1cc(Cl)c(C)cc1NC(=O)c1ccc2c(=O)n3c(nc2c1)CCC3	12	106	113	-21
56	COc1cc(C)c(C)cc1S(=O)(=O)N1CCCCC1c1cccnc1 (configuration not stated)	-14	100	107	-11
57	NC(=O)CNC(=O)c1ccc(C(F)(F)F)cc1	35	105	106	-5
58	Cc1c(C(=O)c2cccc3ccccc23)c2cccc3c2n1[C@H](CN1CCOCC1)CO3	-9	100	101	/
59	O=S(=O)(c1ccc(Cl)cc1)N1CCCC2CCCCC21 (configuration not stated)	-5	102	107	/
60	COC(=O)Cn1cc2c(n1)-c1c(oc(C(=O)N3CCCC3)c1C)CC2	-15	94	96	14
61	O=C1Cc2cc(C(=O)CSc3nnc(-c4ccoc4)c(-c4ccoc4)n3)ccc2N1	18	97	93	0
62	CCN(CC)C(=O)c1cn(-c2ccccc2)nc1C12CC3CC(CC(C3)C1)C2	/	102	109	-17
63	COc1ccc(Nc2nc(-c3cccs3)cs2)cc1	/	107	109	-12
64	Nc1ccc2oc(-c3ccccc3Br)nc2c1	-24	106&101	108&104	-18
65	COc1ccc(CN2CCSCC2)c(OC)c1OC	-13	99	104	-5
66	CCOC(=O)C1CCN(C(c2ccncc2)c2c(O)cc(C)n(Cc3cccnc3)c2=O)CC1 (configuration not stated)	-3	103	103	2
67	Cc1ccc(NC(=O)Nc2ccc(N(C)C)cc2)cc1	-5	104	106	-3
68	C/C(=N\NC(=O)c1ccn[nH]1)c1cc(O)ccc1O	71*	104	104	-31
69	CCN(CC)CCN(C)C1CCC(C)CC1 (configuration not stated)	-12	100	103	-1
70	COC(=O)c1cc(NC(=O)CSC2=NCCS2)cc(C(=O)OC)c1	7	98	101	-1
71	Cc1ccc(N(CC(=O)O)S(=O)(=O)c2ccccc2)cc1	-11	102	102	-21
72	CC(C)=CCCC(C)CN1CCC(O)CC1 (configuration not stated)	-15	100	104	-6
73	Cn1c(=Nc2ccccc2C(=O)O)sc2ccccc21	0	101	98	7
74	O=C(Cc1cn2ccsc2n1)N/N=C1\CCCCC1C1CCCCC1 (configuration not stated)	-16	101	93	-38
75	COc1ccc(CN(C)C(=O)Nc2ccccc2)cc1	-17	103	105	-4

Carrying on.
No.	SMILES	Mtb MbtI inh	Polio RdRp inh	Polio RdRp inh intensity	Mtb MenB inh
76	O=c1oc2ccccc2n1CNc1cccc(Cl)c1	-1	103	108	5
77	CC(C)(C)c1cc(NC(=O)Nc2ccccc2)no1	-6	102	103	-20
78	O=C(Cc1ccccc1)SC1=NCCS1	/	102	99	-14
79	CCOC(=O)/C(=N\Nc1ccccc1)N1CCN(S(=O)(=O)c2cccc(Br)c2)CC1	13	99	105	-29
80	N=C1/C(=C\c2ccc(SCc3ccccc3)o2)C(=O)N=C2SC(CC(=O)N3CCOCC3)=NN12	2	95	100	-40
81	Clc1ccccc1CN1CCN(/N=C/C=C\c2ccco2)CC1	11	104	105	-26
82	Cc1oc(-c2ccccc2Cl)nc1CS(=O)(=O)CC(=O)NCCN1CCOCC1	0	101	102	-2
83	O=C(COC(=O)c1ccccc1O)NCc1ccccc1	-17	104	106	-10
84	Cc1ccc(C)c(NC(=O)C(Sc2nnnn2Cc2cccs2)c2ccccc2)c1 (configuration not stated)	-5	97	98	0
85	O=C(OCc1cc(=O)oc2cc(O)ccc12)c1cc(=O)[nH]c2ccccc12	-38	97	102	-21
86	CC(Nc1ccc2c(c1)OCCO2)C(=O)N1CCCC1 (configuration not stated)	-8	101	105	6
87	Cc1nnc(SCC(=O)N(CC(C)C)CC(C)C)[nH]c1=O	-12	104	110	-6
88	CC(=O)N1c2ccc(S(=O)(=O)N(C)CC(=O)N(C)Cc3ccccc3)cc2CC1C (configuration not stated)	6	104	103	-4
89	O=C(O)C1(N2CCCCC2)CCCCC1	-13	101	99	-12
90	COc1ccc(-c2cc(-c3nnc(COC(=O)CC4CCCC4)o3)c3ccccc3n2)cc1OC	-48	112	115	0
91	Cn1ccnc1S(=O)(=O)/C(C#N)=C/c1ccc2c(c1)OCO2	-1	105	100	7
92	CCCN(C(=O)COc1cc(=O)n(C)c2ccccc12)c1ccccc1C	4	102	101	2
93	CCn1c(=O)c2ccccc2n(CC(N)=O)c1=O	81	102	101	3
94	Cc1cc2nn(-c3ccc(Cl)cc3)nc2cc1NC(=O)c1ccco1	6	103	98	11
95	N#CCSC1=NS(=O)(=O)c2ccccc2N1	9	107	106	-21
96	NS(=O)(=O)c1ccc(NC(=O)CSc2ncccn2)cc1	1	103	108	-5
97	CCCN(C(=O)c1cc2c(s1)-c1c(C)cccc1OC2)c1cccc(Cl)c1	57	100	97	3
98	COc1cccc2sc(N3CCCC3)nc12	4	102	103	-29
99	CNc1cc(=O)n(-c2ccccc2)c(=O)n1-c1ccccc1	-12	108	107	-10
100	Cc1ccc(N=Cc2c(N3CCCC3)nc3c(C)cccn3c2=O)cc1C	-8	106	101	-44

Single records, as listed above. Order of values: Mtb MbtI inh, Polio RdRp inh, Polio RdRp inh intensity, Mtb MenB inh
`COc1ccccc1-c1noc(CCCC(=O)NC2CCCC2)n1` is listed with 13, 103, 103, -44
`Cc1ccc(N(CC(=O)O)S(=O)(=O)c2ccccc2)cc1` is listed with -11, 102, 102, -21
`CC1CCN(C(=O)c2cccn3c(=O)c4c5c(sc4nc23)CCCC5)CC1` is listed with 9, 102, 106, -11
`Cc1ccc(Cn2cccc(C(=O)N3CCc4ccccc43)c2=O)cc1` is listed with 12, 102, 100, -5
`CC1CCCCN1S(=O)(=O)c1ccc(C(=O)Nc2nnc(C3CC3)o2)cc1` (configuration not stated) is listed with 2, 101, 105, -26

This is a random part of the collection; about 1.7% have a hit in one of these screens.
